2A StopGo – lowers the luciferase signal of an FMDV 2A StopGo reporter | human cells with a luciferase reporter of 2A StopGo recoding; control for the full effect not named in the record | Potency, µM (highest dose often 57.9 µM), without a hit: at the highest dose signal change, negative = less light | actives 1.2% (n = 410,000); active = well fitted falling curve with a large enough effect; inconclusive = small, poorly fitted or top-dose-only effect; inactive = no such curve, though single readings can be large or run the other way; tested in HEK293T cells; further: on the % scale 0 is the no-effect control and ±100 the full control effect; nearly all actives have a fitted effect of over 45% in size; luciferase light after 4 h
SARS PLP yeast – SARS-CoV PLP inhibition in yeast | S. cerevisiae expressing SARS-CoV PLpro, growth rescue; control for the full effect not named in the record | Potency, µM (titrated, usually from 32.9 µM), inactives show at the highest dose activity, positive = growth rescue | actives 0.19% (n = 330,000); further: 0% is about no effect; nearly all actives have a fitted effect of over 55% in size; growth read by luminescence after 48 h
Lassa entry inh – inhibitors of Lassa virus binding or cell entry. Potency, µM (series often up to 37.9 µM), without a hit: top-dose activity change, negative = inhibition, hits mostly inhibitors. Lassa virus pseudotype entry inhibition, cell reporter; control for the full effect not named in the record. actives 1.2% (n = 300,000); active means well fitted inhibition curve with a large enough effect; inconclusive means small, poorly fitted or top-dose-only effect, or effect the other way; inactive means flat fitted curve, though single readings scatter; tested in HEK293 cells; further: on the % scale 0 is the no-effect control and ±100 the full control effect; nearly all actives have a fitted effect of over 50% in size; luciferase read-out
Cruzain inh noDet – blocks cruzain activity in detergent-free assay; purified cruzain, Z-FR-AMC fluorescence, no detergent; AID 1476; actives 2.3% (n = 200,000); P25779; Potency, µM, for the others: max response, negative = inhibition, hits mostly inhibitors; active means well fitted curve in the direction sought with a large enough effect; inconclusive means small, poorly fitted or top-dose-only effect, or another doubt; inactive means no such curve, though single readings can be large; an effect the other way counts as inactive or inconclusive;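 further: plate controls were enzyme without inhibitor for no effect and buffer without enzyme for full effect; nearly all actives have a fitted effect of over 40% in size; top concentration of the series not given in the record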
Target sequence (P25779 123-467 limits assumed): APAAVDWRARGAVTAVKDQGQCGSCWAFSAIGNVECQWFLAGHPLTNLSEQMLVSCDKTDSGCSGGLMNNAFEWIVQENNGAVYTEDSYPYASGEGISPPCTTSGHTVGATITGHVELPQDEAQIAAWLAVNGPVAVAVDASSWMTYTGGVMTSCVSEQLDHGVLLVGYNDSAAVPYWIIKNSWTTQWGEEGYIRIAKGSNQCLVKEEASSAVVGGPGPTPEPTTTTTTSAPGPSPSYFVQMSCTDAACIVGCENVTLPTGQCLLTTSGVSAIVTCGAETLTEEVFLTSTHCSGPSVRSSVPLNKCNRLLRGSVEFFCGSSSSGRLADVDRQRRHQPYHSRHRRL
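Purified cruzain at 1.5 nM, pre-incubated 15 min with compound at room temperature in 100 mM sodium acetate pH 5.5, 5 mM DTT, 0.00005% Triton X-100. Reaction started with 2 uM Z-FR-AMC; AMC fluorescence increase over 60 s gives rate.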
Marburg entry inh – inhibitors of Marburg virus binding or cell entry. Marburg virus pseudotyped entry inhibition, cell reporter; control for the full effect not named in the record; about a third of the inactives were read at about 46 µM. Potency, µM (titrated, usually from 37.8 µM), without a hit: at the highest dose activity change, negative = inhibition, actives largely listed as inhibitors. actives 1.8% (n = 300,000). AID 540276; active = well fitted inhibition curve with a large enough effect; inconclusive = small, poorly fitted or top-dose-only effect, or effect the other way; inactive = flat fitted curve, though single readings scatter; tested in HEK293 cells; about a fifth of its hits are not listed in these tables; further: on the % scale 0 is the no-effect control and ±100 the full control effect; luciferase read-out
Cruzain inh Det – blocks cruzain activity in presence of Triton detergent; P25779; purified cruzain, Z-FR-AMC fluorescence, 0.01% Triton; Potency, µM, inactives show max response, negative = inhibition, hits mostly inhibitors; actives 0.43% (n = 200,000); active means well fitted curve in the direction sought with a large enough effect; inconclusive means small, poorly fitted or top-dose-only effect, or another doubt; inactive means no such curve, though single readings can be large; an effect the other way counts as inactive or inconclusive;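 further: plate controls were neutral wells for no effect and buffer without enzyme for full effect; nearly all actives have a fitted effect of over 40% in size; top concentration of the series not given in the record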
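Enzyme 1.5 nM, Z-FR-AMC 2 uM, NaOAc 100 mM pH 5.5, DTT 5 mM, Triton X-100 0.01%; 15 min RT compound preincubation; kinetic ex360/em450, 60 s delta.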
RE007 growth inh – less growth of the S. pombe RE007 Vpr strain. Potency, µM (titrated, usually from 92.2 µM), for the others: at the top dose activity change, negative = less growth. S. pombe RE007 Vpr strain, BacTiter-Glo ATP luminescence, 24 h; control for the full effect not named in the record. AID 651644. actives 0.21% (n = 360,000); active = well fitted falling curve with a large enough effect; inconclusive = small, poorly fitted or top-dose-only effect; inactive = no such curve, though single readings can be large or run the other way;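 further: on the % scale 0 is the no-effect control and ±100 the full control effect; nearly all actives have a fitted effect of over 50% in size; the assay follows cell death caused by Vpr and the record does not say whether a fall means rescue or toxicity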
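Fission yeast RE007 carrying one integrated HIV-1 vpr copy, seeded at OD 0.01 in PMG+AL medium with 23 nL pinned compound. Grown 24 h at 30 degrees; viability read by BacTiter-Glo luminescence after 5 min.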
NS1 inh – inhibitors of influenza NS1 protein function; S. cerevisiae slowed by influenza A NS1, growth recovery by OD600; actives 0.4% (n = 270,000); AID 2326; Potency, µM (doses to about 46.1 µM), for inactives: at the highest dose activity, positive = more growth; further: actives are rising curves; nearly all actives have a fitted effect of over 50% in size
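Read-out: OD600 growth recovery of NS1-expressing budding yeast. Cells grown overnight at 30C in -URA glucose medium, washed, resuspended and diluted 1:100 in 2% galactose assay medium, pH 6.0. Same strain lacking NS1 served as positive control.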
* = called active by the depositor; ? = inconclusive; . = no result given; & = joins results of further samples; [ ] = remark or other dose. Unless noted, the call rests on the fitted dose curve; in most records, active means well fitted rising curve with a large enough effect; inconclusive means small, poorly fitted or top-dose-only effect; inactive means no such curve, though single readings can be large or run the other way. Potency means the concentration at half of the fitted maximal effect. Compounds as they come, and some 4.7% of all compounds hit somewhere here.

SMILES	2A StopGo	SARS PLP yeast	Lassa entry inh	Cruzain inh noDet	Marburg entry inh	Cruzain inh Det	RE007 growth inh	NS1 inh
CC(NC(=O)COC(=O)CN1C(=O)C2CCCCC2C1=O)c1ccccc1 (stereo not given)	-8%	0%	-6%	.	-11%	.	-4%	.
CC(C)CNS(=O)(=O)c1ccc(CCC(=O)NCc2ccc(Cl)cc2)cc1	20%	?	?	.	?	.	14%	6%
Cc1cc(S(=O)(=O)NCCN2CCOCC2)ccc1Cl	0%	0%	25%[46.1 µM]	.	12%[46.1 µM]	.	4%	7%
CCOC(=O)c1sc2nc(C)cc(C)c2c1NC(=O)c1ccco1	-21%	0%	10%	-1%	14%	-6.5%	-6%	-15%
Cc1ccc(N2C(=O)CSC23C(=O)Nc2ccccc23)cc1 (stereo not given)	-9%	0%	6%	6%	2%	-0.5%	10%	-2%
CC(C(N)=O)N1C(=O)C2C3C=CC(C3)C2C1=O (stereo not given)	-6%	-2%	-1%	-22%	7%	3.5%	-5%	-2%
CCCNC(=O)C(=O)NCCC1=CCCCC1	14%	1%	-4%	3%	?	7.2%	-1%	3%
c1cc(-c2sc(-c3ccncc3)c(-c3ccncc3)c2-c2ccncc2)ccn1	-26%	1%	-2%	-6%	?	2.0%	-18%	0%&-2%
O=C(COC(=O)C12CC3CC(CC(Br)(C3)C1)C2)Nc1cccc(S(=O)(=O)N2CCOCC2)c1	?	-22%	-11%[46.1 µM]	.	-25%[46.1 µM]	.	-14%	.
Cc1cccc(-c2cc3nc(C)c(C)c(NCCCn4ccnc4)n3n2)c1	?	-2%	-27%[46.1 µM]	.	?	.	2%	-3%
COc1cccc(N2CC(NS(=O)(=O)c3cccnc3)CC2=O)c1 (stereo not given)	-11%	2%	24%	.	0%[46.1 µM]	.	6%	.
O=C(CNS(=O)(=O)c1c(Cl)cccc1Cl)OCC(=O)N1CCN(c2ccccc2)CC1	0%	8%	5%	5%	3%	-4.6%	23%	-18%
O=C(CSCc1c(F)cccc1Cl)NNC(=S)NC1CCCCC1	29%	8%	-2%	.	-1%	.	-13%	17%
CCC1CCCCN1C(=O)c1ccc(OC)c(OC2CCN(C(C)C)CC2)c1 (stereo not given)	-12%	-3%	19%[46.1 µM]	.	-18%[46.1 µM]	.	-5%	-3%
S=C(NCCN1CCOCC1)Nc1cccc2ccccc12	-7%	-19%	3%	10%	19%	-1.0%	.	10%
COc1ccc(-n2c(CNc3ccc(C)cc3)nnc2SCC(=O)Nc2nc(-c3ccccc3)cs2)cc1	-22%	0%	-10%	6.3µM*	?	2.2%	-23%	16%
O=C(O)CCCC(=O)N1CC(=O)Nc2ccccc21	-6%	-8%	0%	-5%	12%	3.1%	-9%	-7%
Cc1ccccc1S(=O)(=O)Cc1ccc(C(=O)NCCCN2CCCC2)o1	-18%	-2%	.	.	.	.	-14%	-1%
CCS(=O)(=O)N1CCN(c2ccccc2F)CC1	-2%	6%	-7%	6%	-17%	1.5%	-2%	-3%[9.22 µM]
COC(=O)CC(N)c1ccc(Br)cc1 (stereo not given)	-6%	8%	4%[46.1 µM]	.	1%[46.1 µM]	.	4%	3%
O=C(CNC(=O)/C(=C/c1ccccc1)NC(=O)c1ccc(Br)cc1)OCc1ccccc1	-5%	8%	-1%[46.1 µM]	-20%	-5%[46.1 µM]	?	-6%	15%
O=C(N1CCOCC1)N1CCCN(C(=O)N2CCOCC2)CC1	-5%	2%	10%	-5%	-20%	5.2%	-22%	5%
C/C=C\C=C/C(=O)Nc1cccc(C2=NOC3(C2)C[C@H](C(N)=O)N(C(=O)Cc2ccc([N+](=O)[O-])cc2)C3)c1 (stereo not given in full)	-4%	1%	.	.	.	.	-6%	14%
CC(=O)c1cccc(NC(=O)c2c(F)c(F)c(F)c(F)c2F)c1	0%	-3%	2%	6%	-14%	-4.4%	2%	14%
Cc1ccc(NC(=O)c2ccc(Cl)c(N3C(=O)C=CC3=O)c2)cc1	40µM*	-33%	-9%	-20%	-1%	-0.5%	?	-192%
CCC(c1nnc(SCC(=O)Nc2nnc(-c3ccccc3)o2)n1Cc1ccccc1)N(C)C (stereo not given)	-3%	5%	0%	-9%	10%&10%	-0.8%	10%	-7%
CC1=C(C(=O)OCc2ccc3c(c2)OCO3)C(c2ccc(F)cc2)NC(=O)N1 (stereo not given)	?	-13%	?	-8%	?	-5.3%	11%	-20%
Cc1ccc(-c2nnc(Nc3ccc4c(c3)OCO4)c3ccccc23)cc1S(N)(=O)=O	37%[activator]	21%	-28%	-10%	?	-6.9%	-4%	17%
CCN(CC)c1ccc(/C=N/NC(=O)Cc2ccc(OC)c(OC)c2)cc1	-19%	2%	-22%[46.1 µM]	.	-9%[46.1 µM]	.	4%	2%
O=C(O)c1ccc(Nc2cc(Cl)c3nonc3c2[N+](=O)[O-])cc1	40µM*	17%	12%	.	29%[46.1 µM]	.	0%	.
CCCCn1c(=O)c2oc3ccccc3c2n(CC(=O)Nc2cccc(Cl)c2C)c1=O	-5%	.	-3%[46.1 µM]	-9%	.	-0.3%	.	.
S=C(NN=Cc1ccc2c(c1)OCO2)NN=Cc1ccc2c(c1)OCO2	17%	.	?	.	?	.	-15%	.
O=C(Cn1ncc2c3ccccc3n(Cc3cccc(Cl)c3)c2c1=O)Nc1ccc(F)cc1F	0%	.	?	-4%	0%[46.1 µM]	-8.3%	.	.
CCCCn1c(N)c(N(CC(C)C)C(=O)COc2cc(C)ccc2Cl)c(=O)[nH]c1=O	-28%	-2%	12%	.	-9%	.	1%	.
Cc1c(OCC(=O)NCCCN2CCOCC2)ccc2c3c(c(=O)oc12)CCCC3	-6%	3%	12%[46.1 µM]	.	-13%[46.1 µM]	.	-3%	6%
CCCOc1ccc(/C=C/C(=O)NC2CCCCC2)cc1	36%[activator]	.	?	.	?	.	36%	10%
Cc1onc(-c2ccccc2Cl)c1C(=O)N1CCCCC1C (stereo not given)	-2%	2%	6%[46.1 µM]	.	?	.	-9%	-2%
CC(=O)CCc1ccc(OCC(O)CNC2CCCc3ccccc32)cc1 (stereo not given)	-9%	-11%	-11%	6%	?	-1.8%	-8%	1%
Cc1ccc(OCc2nc(-c3cccnc3)no2)cc1C	17%	-5%	?	.	?	.	-25%	-39%
O=C(COc1ccccc1)N/N=C/c1ccc([N+](=O)[O-])o1	8%	-9%	.	3%	.	-4.8%	-13%	-17%

Structural class, the compounds so far containing a furan ring, fused or not
SMILES	2A StopGo	SARS PLP yeast	Lassa entry inh	Cruzain inh noDet	Marburg entry inh	Cruzain inh Det	RE007 growth inh	NS1 inh
CCOC(=O)c1sc2nc(C)cc(C)c2c1NC(=O)c1ccco1	-21%	0%	10%	-1%	14%	-6.5%	-6%	-15%
Cc1ccccc1S(=O)(=O)Cc1ccc(C(=O)NCCCN2CCCC2)o1	-18%	-2%	.	.	.	.	-14%	-1%
CCCCn1c(=O)c2oc3ccccc3c2n(CC(=O)Nc2cccc(Cl)c2C)c1=O	-5%	.	-3%[46.1 µM]	-9%	.	-0.3%	.	.
O=C(COc1ccccc1)N/N=C/c1ccc([N+](=O)[O-])o1	8%	-9%	.	3%	.	-4.8%	-13%	-17%

Following part.
SMILES	2A StopGo	SARS PLP yeast	Lassa entry inh	Cruzain inh noDet	Marburg entry inh	Cruzain inh Det	RE007 growth inh	NS1 inh
COc1ccc(OC)c(/C=N/NC(=O)c2cccc3ccccc23)c1	-9%	.	0%	.	16%[46.1 µM]	.	8%	.
Cc1cc(C)n2nc(C(=O)OCC(=O)N3CC(C)CC(C)C3)nc2n1 (stereo not given)	2%	0%	3%	.	-23%	.	6%	.
COc1cc(/C=C2\C(=O)ON=C2c2ccc(Cl)cc2)ccc1O	25µM*	.	-22%[46.1 µM]	.	?	.	3%	.
O=C(NCc1ccccn1)c1ccc(Cl)c(S(=O)(=O)Nc2ccccc2C(=O)NCc2ccccn2)c1	64%[activator]	-4%	7%	16%	-7%	-2.0%	19%	-5%
Cc1ccc(N=C/C(C(=O)C(F)(F)F)=C(\O)c2ccco2)cc1Cl	0%	-17%	?	1%	-26%	-9.7%	-29%	-17%
CCc1ccc(CNC(=O)CCCn2nc(C)n3ccnc3c2=O)cc1	-12%	?	.	.	.	.	-7%	7%
O=S(=O)(/N=C(/Nc1ccc(Cl)cc1Cl)c1ccccc1)c1cccs1	18%	1%	26%[46.1 µM]	.	16%[46.1 µM]	.	12%	1%
Cc1occc1-c1nnc(SCC(=O)NC2CCCC2)n1C	4%	11%	12%	.	-4%[46.1 µM]	.	4%	8%
S=C(NCc1ccccc1)Nc1nccs1	22%	2%	-28%[46.1 µM]	.	?	.	-8%	-40%
COc1ccc(CNC(=O)COC(=O)C2CC3C=CC2C3)cc1 (stereo not given)	-4%	22%	.	7%	.	7.1%	2%	1%
Cc1ccc(NC(=O)C2CCN(c3cnccn3)CC2)cc1C	-3%	-1%	.	.	.	.	11%	-5%
COc1ccc(N2CC(NC(=O)NCC(C)C)CC2=O)cc1 (stereo not given)	-21%	-25%	5%	9%	0%	0.7%	-1%	-5%
O=C(NCCC1=CCCCC1)C1CCN(S(=O)(=O)c2cccc3nonc23)CC1	-17%	2%	1%	?	-1%	3.0%	-4%	-3%
CCCCC(=O)Nc1nc2ccc3nc(C)sc3c2s1	30%[activator]	-16%	.	?	.	-6.7%	1%	-45%
N#CCCN1CCN(C(=O)c2c(N)no[n+]2[O-])CC1	1%	0%	7%	.	-3%[46.1 µM]	.	5%	.
CCOC(=O)Nc1sc2c(c1C(N)=O)CCC(C)C2 (stereo not given)	3%	-2%	.	.	.	.	-5%	-1%
O=C(O)c1ccc(/C=N/N2CCN(Cc3ccccc3)CC2)cc1	10%	-13%	-7%	6%	4%	-4.4%	8%	6%

Screening data: PubChem, National Center for Advancing Translational Sciences (NCATS)
